# Hedgehog inh = blocks Sonic Hedgehog signaling | Shh-LIGHT2 Gli-luciferase reporter, 30 h | inhibition, % (concentration not given with the values) | hit rate 2.1% among 22,000;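 active means replicate mean of 65% or more; inconclusive means mean lower but half the replicates past it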;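 further: pathway switched on by Shh-conditioned medium diluted 1 in 25 in low serum; 100 nL library stock added to about 40 µL; 0% = median of neutral wells and 100% = positive control level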
# YB-1 expression = YB-1 expression inhibition; U2OS, qRT-PCR YB-1 vs CDIP delta delta Cp, 16 h; active compounds read high; zero = DMSO, each unit about twofold; hit rate 0.37% among 30,000; AID 434959; delta delta Cp (YB-1 minus CDIP) (concentration not given with the values);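 active means delta delta Cp rounded down to an integer at or above 3, about 3 SD of DMSO wells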;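 further: higher means less YB-1 transcript or more CDIP transcript relative to DMSO; stock transfer was 100 nL into about 100 µL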
# PD-1 reverse act = reversal of PD-1 mediated T-cell inhibition; primary human CD4 T cells, PD-L1 beads, CellTiter-Glo 96 h; activation, % (concentration not given with the values); 29,000 tested, under 10 active; AID 2316;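 active means replicate mean of 50% or more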;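 further: 0% = median vehicle wells and 100% = positive control; 100 nL library stock added to about 50 µL; numbers are from one replicate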
# MITF inhib = blocks MITF activity; hit rate 0.28% among 37,000; TRPM1 promoter luciferase, luminescence, 24 h; inhibition, % (no concentration beside the values);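 active means most replicates at 85% or more, or half of them and the mean; inconclusive means half reach 85% but not the mean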;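 further: human melanocyte line stably carrying TRPM1 promoter luciferase reporter; 0% = vehicle wells and 100% = a positive control; the first replicate is given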
# The depositor's hits bear a star; ? = inconclusive; nt = no result given; & = joins results of further samples. This is a subset (hit frequency here may not be typical).
# Screens in order – Hedgehog inh	YB-1 expression	PD-1 reverse act	MITF inhib
C[C@H]1CN([C@@H](C)CO)C(=O)Cc2cc(NC(=O)CCCCCC(=O)Nc3ccccc3N)ccc2O[C@@H]1CN(C)Cc1ccc(Oc2ccccc2)cc1
→ nt	-0.0188	-0.2	7.2
C[C@H](CO)N1C[C@H](C)[C@H](CN(C)C(=O)Nc2ccc3c(c2)OCO3)Oc2c(NC(=O)c3ccncc3)cccc2C1=O
→ -20.5	-0.312	0.5	3.8
C[C@@H]1CN([C@H](C)CO)C(=O)Cc2cc(NC(=O)Nc3ccccc3)ccc2O[C@H]1CN(C)Cc1ccncc1
→ -18.7	-0.0508	-0.1	-7.8
COc1ccc(OC)c(C(C)NC(=O)Nc2cccc(C(C)=O)c2)c1 (stereo not drawn)
→ nt	nt	-0.6	-17.8
O=C(CSc1nnc(-c2cccc3ccccc23)n1-c1ccccc1)NC1CC1
→ nt	nt	0.5	4.1
C[C@H](CO)N1C[C@H](C)[C@H](CN(C)C(=O)Nc2ccc3c(c2)OCO3)Oc2ccc(NC(=O)NC3CCCCC3)cc2CC1=O
→ -13.9	0.352	-1.9	-8.2
Cc1ccc(S(=O)(=O)Nc2ccc3c(c2)C(=O)N([C@H](C)CO)C[C@@H](C)[C@@H](CN(C)S(=O)(=O)c2cn(C)cn2)O3)cc1
→ -26.0	-0.407	1.1	1.4
Cc1noc(C)c1S(=O)(=O)N(C)C[C@H]1Oc2c(NS(=O)(=O)c3cn(C)cn3)cccc2C(=O)N([C@@H](C)CO)C[C@H]1C
→ 10.3	-0.39	nt	-6.2
C[C@@H]1CN([C@H](C)CO)C(=O)Cc2cc(NC(=O)NC3CCCCC3)ccc2O[C@H]1CN(C)S(=O)(=O)c1cccs1
→ -8.3	0.176	-0.6	-5.9
Cc1cc(C(=O)Nc2cccc3c2O[C@H](CN(C)S(=O)(=O)c2cn(C)cn2)[C@@H](C)CN([C@H](C)CO)C3=O)n(C)n1
→ nt	-0.299	nt	-8.5
C[C@@H]1CN([C@@H](C)CO)C(=O)Cc2cc(NS(=O)(=O)c3cn(C)cn3)ccc2O[C@@H]1CN(C)S(=O)(=O)c1cn(C)cn1
→ -63.7	-0.698	-0.3	-16.3
C[C@@H]1CCCCO[C@@H](CN(C)C)[C@@H](C)CN([C@H](C)CO)C(=O)c2cc(NC(=O)Nc3cccc4ccccc34)ccc2O1
→ 15.5	-0.0477	1.1	0.9
O=C(O)CCSc1n[nH]c2nc3ccccc3n12
→ nt	nt	-0.2	-4.6
COc1ccc(S(=O)(=O)N(C)C[C@H]2Oc3ccc(NC(=O)Nc4c(C)noc4C)cc3C(=O)N([C@@H](C)CO)C[C@H]2C)cc1
→ -38.4	0.109	-1.6	-0.6
Cc1ccc(S(=O)(=O)Nc2ccc3c(c2)CC(=O)N([C@H](C)CO)C[C@@H](C)[C@@H](CN(C)Cc2ccc(C(=O)O)cc2)O3)cc1
→ 24.1	-0.0858	0.7	4.6
Nc1ccc(-c2nnc(SCC(=O)Nc3cccc(C(F)(F)F)c3)n2-c2ccccc2)cc1
→ nt	nt	1.0	-12.1
Cc1ccc(S(=O)(=O)Nc2ccc3c(c2)CC(=O)N([C@H](C)CO)C[C@@H](C)[C@@H](CN(C)S(=O)(=O)c2ccccc2)O3)cc1
→ -31.1	-0.306	-1.8	-6.2
C[C@@H]1CN([C@@H](C)CO)C(=O)c2cccc(NC(=O)Nc3cccc4ccccc34)c2O[C@H]1CN(C)S(=O)(=O)c1ccc(F)cc1
→ -41.4	0.0522	-0.6	7.2
CC(C)NC[C@H](O)COc1ccc(CC(N)=O)cc1
→ -10.8	0.49	2.1	-1.6
Cc1ccc(S(=O)(=O)N(C)C[C@@H]2Oc3c(NC(=O)Nc4cccc5ccccc45)cccc3C(=O)N([C@H](C)CO)C[C@H]2C)cc1
→ -2.0	0.211	1.2	2.0
Cc1ccc(S(=O)(=O)NCC(=O)Nc2ccc(C(N)=O)cc2)cc1
→ nt	nt	2.6	-5.1
CC(C)NC(=O)N(C)C[C@H]1Oc2ccc(NS(=O)(=O)c3cccs3)cc2C(=O)N([C@@H](C)CO)C[C@@H]1C
→ -5.2	0.0589	0.1	11.9
O=C(NCc1cccnc1)C1CCCN(S(=O)(=O)c2ccccc2)C1 (stereo not drawn)
→ nt	nt	0.9	0.4
O=C1S/C(=C\c2ccc(N3CCOCC3)o2)C(=O)N1c1ccccc1
→ nt	0.184	-0.4	-34.4
COc1ccc(S(=O)(=O)Nc2ccc3c(c2)CC(=O)N([C@@H](C)CO)C[C@H](C)[C@H](CN(C)S(=O)(=O)c2ccc(F)cc2)O3)cc1
→ -7.1	0.0378	nt	-4.7
C[C@@H]1CN([C@H](C)CO)C(=O)c2cccc(NS(=O)(=O)c3ccccc3)c2O[C@@H]1CN(C)Cc1ccc(Oc2ccccc2)cc1
→ -21.2	-0.885	-0.7	0.5
O=C(CSc1nnc2scc(-c3ccccc3)n12)c1ccc2c(c1)OCCO2
→ nt	nt	2.2	-5.4
C[C@@H]1CN([C@@H](C)CO)C(=O)c2cc(NC(=O)CCCN(C)C)ccc2O[C@H]1CN(C)S(=O)(=O)c1cccs1
→ -8.1	0.233	-0.4	-5.5
COC(=O)c1ccc(NC(=O)CSc2cc(C)c3ccccc3n2)cc1
→ nt	nt	2.4	20.2
Cc1ccc(S(=O)(=O)N2C(=O)CCC2C(=O)Nc2ccc(I)cc2)cc1 (stereo not drawn)
→ nt	nt	1.8	-7.1
Cc1ccc(S(=O)(=O)Nc2ccc3c(c2)C(=O)N([C@H](C)CO)C[C@H](C)[C@H](CN(C)Cc2ccc(C(=O)O)cc2)O3)cc1
→ nt	0.15	2.3	-3.3
C[C@H]1CN([C@@H](C)CO)C(=O)c2cc(NC(=O)NC3CCCCC3)ccc2O[C@@H]1CN(C)S(C)(=O)=O
→ -38.0	0.235	0.8	5.0
C[C@H](CO)N1C[C@H](C)[C@H](CN(C)S(=O)(=O)c2ccccc2)Oc2ccc(NC(=O)Cc3cn(C)c4ccccc34)cc2C1=O
→ nt	-0.729	nt	12.9
O=c1c(-c2ccccc2)coc2cc(O)ccc12
→ -26.3	-0.298	1.2	-38.4
CCc1ccccc1NC(=O)CN(C)S(=O)(=O)c1ccc2ccccc2c1
→ nt	nt	1.0	12.2
CCN(CC)C(=O)CSc1nc2sc(C)c(C)c2c(=O)[nH]1
→ nt	nt	-0.8	-2.5
Cc1noc(C)c1S(=O)(=O)Nc1ccc2c(c1)C(=O)N([C@H](C)CO)C[C@@H](C)[C@H](CN(C)C(=O)Nc1cccc3ccccc13)O2
→ -11.9	-0.234	nt	-2.2
Cc1cccc(NC(=O)CSc2nnc(-c3ccc(Cl)cc3)n2-c2cccc(C)c2)c1
→ nt	nt	-12.5	50.0
C[C@H]1CN([C@@H](C)CO)C(=O)Cc2cc(NC(=O)Nc3ccc(F)cc3)ccc2O[C@@H]1CN(C)Cc1ccc2c(c1)OCO2
→ -3.7	-0.118	nt	-2.2
C[C@H](CO)N1C[C@H](C)[C@H](CN(C)Cc2ccccc2)Oc2ccc(NC(=O)NC3CCCCC3)cc2CC1=O
→ 2.4	0.204	nt	-1.0
C[C@H]1CN([C@@H](C)CO)C(=O)c2cccc(NC(=O)Nc3cccc4ccccc34)c2O[C@H]1CN(C)S(=O)(=O)c1ccc(F)cc1
→ ?	-0.22	1.3	-4.9
CCOc1ccc(NC(=O)CSc2nnc(-c3ccc(Cl)cc3)n2C)cc1
→ nt	nt	2.1	17.2
CC(C)NC(=O)Nc1ccc2c(c1)C(=O)N([C@@H](C)CO)C[C@@H](C)[C@H](CN(C)CC1CCCCC1)O2
→ nt	0.0185	1.7	-0.3
COc1cc(NC(=O)Cc2ccc(F)cc2)cc(S(=O)(=O)c2ccc(Cl)cc2)c1
→ 23.6	-0.404	0.2	58.5
C[C@H](CO)N1C[C@H](C)[C@H](CN(C)CC2CCCCC2)Oc2c(NS(=O)(=O)c3cn(C)cn3)cccc2C1=O
→ -9.7	-0.308	0.6	2.5
C[C@@H]1CN([C@H](C)CO)C(=O)c2cccc(NS(=O)(=O)c3ccccc3)c2O[C@@H]1CN(C)Cc1ccc(-c2ccccc2)cc1
→ 6.5	0.248	-3.7	-0.3
O=C(c1ccccc1Cl)n1nc(-c2ccccc2)nc1NCc1ccco1
→ nt	nt	1.4	-49.8
Cc1noc(C)c1NC(=O)N(C)C[C@@H]1Oc2c(NS(=O)(=O)c3c(C)noc3C)cccc2C(=O)N([C@H](C)CO)C[C@@H]1C
→ -8.6	-0.00646	0.4	9.4
COc1ccc(C)cc1NC(=O)CN(c1ccc(I)cc1)S(C)(=O)=O
→ nt	nt	-6.1	5.5
C/C=C(/C)C(=O)O[C@H]1C=C(C)C[C@H](OC(=O)c2ccc(O)cc2)C2[C@](O)(C(C)C)CC[C@@]21C (stereo partly drawn)
→ 10.2	-0.291	-5.8	41.8

# New compounds follow:
# Screens in order – Hedgehog inh	YB-1 expression	PD-1 reverse act	MITF inhib
COc1ccc(CN(C)C[C@H]2Oc3c(NS(=O)(=O)c4cn(C)cn4)cccc3C(=O)N([C@H](C)CO)C[C@H]2C)cc1
→ -20.2	0.114	0.4	2.4
Cc1ccc(NC(=O)CSc2nncc3ccccc23)cc1
→ nt	nt	0.7	16.2
C[C@@H]1CN([C@H](C)CO)C(=O)Cc2cc(NC(=O)c3ccncc3)ccc2O[C@@H]1CN(C)C(=O)Nc1ccc2c(c1)OCO2
→ 5.1	0.0631	-1.2	-0.6
C[C@@H]1CN([C@H](C)CO)C(=O)c2cc(NC(=O)Nc3ccccc3)ccc2O[C@H]1CN(C)Cc1ccncc1
→ nt	0.278	0.0	-3.2
COC(=O)c1ccccc1S(=O)(=O)/C(C#N)=C/Nc1nc(SC)nc(C2CC2)n1
→ 3.6	0.0401	-0.4	-10.6
CC(C)(C)NS(=O)(=O)c1ccc(NC(=O)CSc2nc3ccccc3s2)cc1
→ nt	nt	-0.7	0.8
CC(C)Cc1c(O)nc(SCC(=O)NC(C)(C)C)[nH]c1=O
→ -24.4	0.645	0.3	7.3
Cc1ccc(S(=O)(=O)Nc2ccc3c(c2)C(=O)N([C@@H](C)CO)C[C@H](C)[C@H](CN(C)S(=O)(=O)c2ccccc2)O3)cc1
→ nt	-0.701	2.6	0.5
COC(=O)c1cc(NC(=O)COc2ccccc2OC)cc(C(=O)OC)c1
→ nt	nt	1.2	15.3
CC(C)NC(=O)Nc1ccc2c(c1)CC(=O)N([C@@H](C)CO)C[C@H](C)[C@@H](CN(C)Cc1ccc(Cl)c(Cl)c1)O2
→ 31.3	-0.0462	0.0	4.9
N#Cc1c(-c2ccc(Cl)cc2)[nH]c(SCc2ccccc2)nc1=S
→ 4.9	0.343	1.0	11.0
C[C@H](CO)N1C[C@H](C)[C@H](CN(C)S(=O)(=O)c2ccccc2)Oc2c(NS(C)(=O)=O)cccc2C1=O
→ 6.2	-0.0546	1.6	-2.4
CN(C)C(=O)C(CCN1CCC(O)(c2ccc(Cl)cc2)CC1)(c1ccccc1)c1ccccc1
→ 57.8&40.2	0.356&-0.0643	1.3&-10.4	-5.9&-7.3
C[C@@H]1CN([C@@H](C)CO)C(=O)c2cccc(NS(C)(=O)=O)c2O[C@H]1CN(C)S(=O)(=O)c1ccccc1
→ -23.5	-0.287	2.1	-0.6
C[C@@H]1CN([C@@H](C)CO)C(=O)Cc2cc(NC(=O)CCCCCC(=O)Nc3ccccc3N)ccc2O[C@@H]1CN(C)Cc1ccc(Oc2ccccc2)cc1
→ nt	-0.125	-0.9	21.2
COc1ccc(SC(=O)c2cc(C)n(Cc3c(Cl)cccc3Cl)n2)cc1
→ 24.7	-0.0796	0.1	5.8
Cc1cc(NC(=O)CCSc2nc(-c3ccco3)cc(C(F)(F)F)n2)n(-c2ccccc2)n1
→ nt	nt	0.1	2.8
C[C@H]1CN([C@@H](C)CO)C(=O)Cc2cc(NS(=O)(=O)c3cn(C)cn3)ccc2O[C@@H]1CN(C)S(=O)(=O)c1cn(C)cn1
→ -13.3	-0.338	2.8	-6.0
COc1ccc2c(c1)C(=O)CC(c1ccccc1)O2 (stereo not drawn)
→ -35.8	-0.382	0.5	-68.7
COc1cc(-c2nnc(SCC(=O)c3ccccc3)n2-c2ccccc2)cc(OC)c1OC
→ nt	nt	-1.0	0.8
C[C@H](CO)N1C[C@H](C)[C@H](CN(C)Cc2ccncc2)Oc2ccc(NC(=O)C3CCCCC3)cc2C1=O
→ -16.9	0.183	-1.3	-4.2
C[C@H]1CN([C@@H](C)CO)C(=O)c2cc(NC(=O)Cc3cn(C)c4ccccc34)ccc2O[C@@H]1CN(C)Cc1ccncc1
→ nt	0.295	nt	22.1
C[C@H]1CN([C@@H](C)CO)C(=O)c2cccc(NC(=O)C3CCOCC3)c2O[C@H]1CN(C)S(=O)(=O)c1ccccc1
→ -27.1	0.281	nt	-3.1

# 3 compounds already listed, ordered by formula weight, lowest first:
# Screens in order – Hedgehog inh	YB-1 expression	PD-1 reverse act	MITF inhib
COc1ccc2c(c1)C(=O)CC(c1ccccc1)O2 (stereo not drawn)
→ -35.8	-0.382	0.5	-68.7
N#Cc1c(-c2ccc(Cl)cc2)[nH]c(SCc2ccccc2)nc1=S
→ 4.9	0.343	1.0	11.0
C[C@H]1CN([C@@H](C)CO)C(=O)c2cc(NC(=O)Cc3cn(C)c4ccccc34)ccc2O[C@@H]1CN(C)Cc1ccncc1
→ nt	0.295	nt	22.1

# Screening data: PubChem BioAssay, Broad Institute
